GLA inh pH 4.5: qHTS Assay for Inhibitors of Human alpha-Galactosidase at pH 4.5; Alpha-galactosidase A (Homo sapiens), P06280; purified enzyme, 4-MU-alpha-Gal fluorescence, pH 4.5; activity change, negative = inhibition, % at 105 µM; 230,000 tested, under 10 active; AID 1467, 2008; inconclusive = small, poorly fitted or top-dose-only inhibition, or a rising curve; inactive = flat fitted curve, though single readings scatter; no compound was filed as active;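 note: 0% = full activity with enzyme and -100% = basal without enzyme; dose as in the result columns while the protocol names 77 µM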
Target sequence (P06280 whole entry, looked up): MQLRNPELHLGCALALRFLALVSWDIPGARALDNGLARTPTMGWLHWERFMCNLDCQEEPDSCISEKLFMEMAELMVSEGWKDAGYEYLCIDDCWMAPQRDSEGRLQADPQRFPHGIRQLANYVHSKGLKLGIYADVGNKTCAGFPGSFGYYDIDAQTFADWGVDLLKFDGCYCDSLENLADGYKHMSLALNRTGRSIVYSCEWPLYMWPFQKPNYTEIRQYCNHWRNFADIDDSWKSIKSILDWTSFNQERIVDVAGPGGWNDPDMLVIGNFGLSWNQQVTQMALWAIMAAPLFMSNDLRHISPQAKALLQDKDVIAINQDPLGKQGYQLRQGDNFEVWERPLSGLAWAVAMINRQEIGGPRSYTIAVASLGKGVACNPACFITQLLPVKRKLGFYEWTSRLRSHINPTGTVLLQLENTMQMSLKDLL
miR-21 reporter: qHTS Assay for Modulators of miRNAs and/orActivators of miR-21. AID 2288, 2010. 340,000 tested, under 10 active. HeLa miR-21 FLuc reporter, luciferase, 48 h. Potency, µM (titrated, usually from 38.3 µM), for the others: at the top dose reporter change, positive = more light; active = well fitted rising curve with a large enough effect; inconclusive = small, poorly fitted or top-dose-only effect; inactive = no such curve, though single readings can be large or run the other way;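 note: % of control where 0% means no effect; miR-21 action dims this reporter so a rising signal means less miR-21 action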
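Luminescence from a firefly luciferase reporter carrying a miR-21 binding site downstream, stably expressed under a CMV promoter in HeLa cells that make miR-21 endogenously, reports miRNA modulation after 48 h compound exposure up to approximately 40uM final.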
Rango release inh: qHTS Assay for Inhibitors of RanGTP induced Rango (Ran-regulated importin-beta cargo) - Importin beta complex dissociation; Snurportin-1 (Homo sapiens) + GTP-binding nuclear protein Ran (Homo sapiens) + Importin …; Biochemical FRET Rango-importin beta, RanGTP-induced dissociation; Potency, µM (top dose mostly 46.1 µM), for inactives: at the top dose activity change, negative = inhibition; actives 0.071% (n = 340,000); AID 540253, 2011; active means falling FRET ratio curve, often poorly fitted, with flat reads before Ran was added; inconclusive means other falling curves, or compound fluorescence or quenching; inactive means flat or rising ratio curve;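 note: potency is the fitted concentration of half-maximal effect; % of control where 0% means no effect; nearly all actives have a fitted effect of over 45% in size; -100% = wells without RanGTP and RCC1; the record marks most hits as doubtful in a second field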
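Rango/importin beta premix (0.1/0.25 uM final), PBS + 1 mM DTT + 0.02% Tween-20 + 0.1% BSA; cpd 5 min RT; FRET pre-read; + RanGTP-RCC1 (0.6 uM Ran, 2 mM GTP, 0.2 uM RCC1); 45 min RT; FRET post-read, ex 430, em 486/530 nm.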
Rango-impB inh: qHTS Assay for Inhibitors of Rango (Ran-regulated importin-beta cargo) - Importin beta complex formation; Rango CFP/YFP FRET sensor + importin beta, 45 min; Potency, µM (top dose mostly 92.2 µM), without a hit: top-dose inhibition of complex formation; actives 0.031% (n = 340,000); active = rising FRET ratio curve, often small or poorly fitted; inconclusive = mostly compound fluorescence or quenching in the first reads; inactive = flat curves in all reads;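 note: potency is the fitted concentration of half-maximal effect; 0% = DMSO wells and 100% = buffer wells lacking importin beta; nearly all actives have a fitted effect of over 15% in size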
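FRET biosensor Rango (snurportin 1 IBB between N-terminal EYFP and C-terminal Cerulean), 50 nM in PBS/1 mM DTT/0.02% Tween-20/0.1% BSA, preincubated 5 min RT with compound; 0.125 microM importin beta added, 45 min RT, CFP/YFP FRET ratio read.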
Active calls of the source: *; ? = inconclusive; / = no result given; & = joins results of further samples. Some of the compounds tested; count on the stated rates, not on these rows.

Molecule,GLA inh pH 4.5,miR-21 reporter,Rango release inh,Rango-impB inh
COc1ccc(C(=O)COC(=O)CCN2C(=O)C3C4C=CC(C5CC45)C3C2=O)cc1 (stereo unspecified),/,-2.3%,1.8%,3.0%
COc1ccc(NS(=O)(=O)c2cc(C(=O)NNC(=O)c3ccncc3)ccc2OC)c(OC)c1,/,/,-7.6%,6.6%
Clc1ccc(Cn2ncc3c(NCc4cccnc4)ncnc32)cc1,3.9,16.5%,2.7%,-2.0%
CCC(=O)Nc1cccc(NC(=O)CSc2nnc(C3CC3)n2C)c1,-1.2,0.4%,-5.1%,6.1%
c1ccc(C(CN2CCOCC2)c2ccccc2)cc1,13.9,-8.8%,23.3%,-2.9%
O=C(CCN1CCN(C/C=C/c2ccccc2)CC1)Nc1ccccc1,-2.9,1.7%,1.1%,-2.1%
COC(=O)c1ccc(NC(=O)CN2CCN(S(=O)(=O)c3ccc(Br)cc3)CC2)cc1,/,-1.6%&1.4%,12.4%,-0.6%
Cc1ccc(NCc2nnc(SCC(N)=O)n2CC2CCCO2)c(C)c1 (stereo unspecified),3.4,-45.9%,9.0%,1.2%
C[C@@H]1CC[C@@]2(O[C@H](CCO)C[C@H](O)[C@H]2O)O1,3.2,3.2%,-19.1%,0.4%
COc1ccc(C)cc1-n1c(SCC(=O)NC2CC2)nc2ccccc2c1=O,/,/,7.0%,4.5%
COc1ccccc1-c1nnc(SCC(=O)O)n1C,-4.2,-0.7%,?,-1.8%
Cc1nc(C)c(C(=O)OCC(=O)Nc2ccccc2SCC#N)s1,/,/,-13.9%,?

(listing goes on)
Molecule,GLA inh pH 4.5,miR-21 reporter,Rango release inh,Rango-impB inh
CN(CC(=O)NCCC1=CCCCC1)S(=O)(=O)c1ccc2c(c1)c(=O)n(C)c(=O)n2C,12.3,2.0%,7.8%,-1.6%
Cc1cc(NS(=O)(=O)c2ccc(NC(=O)CNS(=O)(=O)c3ccccc3)cc2)nc(C)n1,/,/,12.4%,4.5%
CC(Oc1ccccc1)C(=O)Nc1oc(-c2ccco2)c(-c2ccco2)c1C#N (stereo unspecified),-8.9,-2.4%,-14.0%,?
COc1ccccc1-c1nnc(NC(=O)C(C)Sc2nncn2C)s1 (stereo unspecified),-2.0,-38.6%,-1.4%,0.2%
CCCc1nn2c(=O)cc(CSCC(=O)Nc3cccc(OC)c3)nc2s1,/,0.9%,?,-5.1%
COc1cc(NC(=O)Cc2ccccc2)cc(OC)c1,-7.9,-0.5%,-2.9%,-1.4%
Clc1ccc(-c2nc3ccccn3c2CN2CCCCC2)cc1,0.9,-16.3%,7.1%,6.9%
COc1cc(CCC(=O)OCC(=O)N(CC(C)C)C2CCS(=O)(=O)C2)cc(OC)c1OC (stereo unspecified),/,/,7.6%,1.5%
COc1ccc(NC(=O)CNC(=O)Cc2ccccc2)cc1,/,-13.2%,-19.4%,3.1%
CC(C)n1nc(C(=O)OCC(=O)c2c[nH]c3ccccc23)c2ccccc2c1=O,-13.4,3.7%,-5.7%,-1.5%
COCC(C)NC(C(=O)Nc1cccc(C(C)=O)c1)c1ccccc1 (stereo unspecified),0.4,-2.0%,-0.9%,0.6%
Cc1cc(=O)[nH]c(SCC(=O)Nc2ccc(C)c(S(=O)(=O)N3CCCCC3)c2)n1,6.4,-4.2%,0.1%,0.0%

11 entries from above, set out differently:
Order of values: GLA inh pH 4.5, miR-21 reporter, Rango release inh, Rango-impB inh
Cc1cc(NS(=O)(=O)c2ccc(NC(=O)CNS(=O)(=O)c3ccccc3)cc2)nc(C)n1
  /, /, 12.4%, 4.5%
CC(Oc1ccccc1)C(=O)Nc1oc(-c2ccco2)c(-c2ccco2)c1C#N (stereo unspecified)
  -8.9, -2.4%, -14.0%, ?
COc1ccccc1-c1nnc(NC(=O)C(C)Sc2nncn2C)s1 (stereo unspecified)
  -2.0, -38.6%, -1.4%, 0.2%
CCCc1nn2c(=O)cc(CSCC(=O)Nc3cccc(OC)c3)nc2s1
  /, 0.9%, ?, -5.1%
COc1cc(NC(=O)Cc2ccccc2)cc(OC)c1
  -7.9, -0.5%, -2.9%, -1.4%
Clc1ccc(-c2nc3ccccn3c2CN2CCCCC2)cc1
  0.9, -16.3%, 7.1%, 6.9%
COc1cc(CCC(=O)OCC(=O)N(CC(C)C)C2CCS(=O)(=O)C2)cc(OC)c1OC (stereo unspecified)
  /, /, 7.6%, 1.5%
COc1ccc(NC(=O)CNC(=O)Cc2ccccc2)cc1
  /, -13.2%, -19.4%, 3.1%
CC(C)n1nc(C(=O)OCC(=O)c2c[nH]c3ccccc23)c2ccccc2c1=O
  -13.4, 3.7%, -5.7%, -1.5%
COCC(C)NC(C(=O)Nc1cccc(C(C)=O)c1)c1ccccc1 (stereo unspecified)
  0.4, -2.0%, -0.9%, 0.6%
Cc1cc(=O)[nH]c(SCC(=O)Nc2ccc(C)c(S(=O)(=O)N3CCCCC3)c2)n1
  6.4, -4.2%, 0.1%, 0.0%

The listing continues:
Molecule,GLA inh pH 4.5,miR-21 reporter,Rango release inh,Rango-impB inh
COc1ccc(S(=O)(=O)N2CCOCC2)cc1NC(=O)CN(C)CC(=O)Nc1cccc(F)c1,/,/,-8.8%,-2.4%
CCOC(=O)c1ccc(S(=O)(=O)NNC(=O)c2ccc3c(c2)nc(C)n3CC)cc1,9.4,-2.6%,0.5%,-1.7%
O=C(COC(=O)C12CC3CC(CC(C3)C1)C2)NNC(=O)c1ccccc1,/,/,10.6%,-1.5%
CC(C)n1c(SCC(=O)N2CCCCC2)nc2c1c(=O)n(C)c(=O)n2C,/,1.4%,-8.8%,-0.1%
CN(C)C(=O)Cn1nc(-c2ccccc2)c2ccccc2c1=O,-2.1,-1.7%,5.9%,2.1%
CCS(=O)(=O)c1ccc2c(c1)N(S(C)(=O)=O)CC(C(=O)NN)O2 (stereo unspecified),-28.1,-1.8%,-9.3%,0.1%
Cc1ccc(S(=O)(=O)N2[C@@H](c3ccc(Br)cc3)C(C(=O)O)=C[C@H]2C(C)(C)C)cc1,/,/,16.7%,1.3%
CCOC(=O)C[C@H]1c2ccccc2S(=O)(=O)N1C1CC1,/,/,12.8%,0.9%
CC(C)Cn1c(CN2CCN(c3ccccc3F)CC2)nc2c1c(=O)[nH]c(=O)n2C,-4.1,-0.2%,0.4%,-3.6%
O=C(COC(=O)c1cnccn1)NCCc1ccccc1,6.7,0.6%,-16.2%,?
COCCNC(=O)C1CCC(CNS(=O)(=O)c2ccccc2)CC1 (stereo unspecified),/,-0.7%,15.2%,0.6%
COc1ccccc1NS(=O)(=O)c1ccc(C)c(C(=O)NCC(c2cccs2)N2CCOCC2)c1 (stereo unspecified),/,/,-0.8%,-3.3%

Additional compounds:
SMILES	GLA inh pH 4.5	miR-21 reporter	Rango release inh	Rango-impB inh
Cc1cccc(NNC(=O)C(=O)NNc2cccc(C)c2)c1	0.4	12.4%	1.0%	-3.1%
CCOc1ccc(CNc2ccc(CNc3ncn[nH]3)cc2)cc1	-3.3	6.3%	28.5%	0.6%
Cc1ccc(C(=O)COC(=O)COc2ccccc2C)cc1	/	-2.4%	-4.1%	-0.3%
COc1ccc(/C(N)=N/OC(=O)CN(C)S(=O)(=O)c2ccc(C)cc2)cc1	-7.2	5.9%	11.5%	1.1%
O=C(O)c1ccc(N2CC3CC(C2)c2cccc(=O)n2C3)c(NS(=O)(=O)c2cccc(C(F)(F)F)c2)c1 (stereo unspecified)	-6.0	-3.3%	-10.5%	-1.5%
N#Cc1c(-c2ccc3c(c2)OCO3)csc1N	-7.1	-33.0%	1.1%	-0.3%
COCCCNC(=O)CCc1c(C)nc2c(-c3ccc(F)cc3)c(C)nn2c1C	1.0	-6.9%	-9.9%	0.8%
O=C1C2C(C(=O)N1/N=C/c1cccc([N+](=O)[O-])c1)C1C=CC2C12CC2 (stereo unspecified)	-10.4	-67.6%	-5.1%	-1.6%
Cc1ccc(C)c2c1[nH]c1ccc([N+](=O)[O-])cc12	0.1	-4.2%	-20.5%	?
CCN1CCC(O)(C(C(=O)O)c2ccccc2)CC1 (stereo unspecified)	/	/	1.7%	-0.4%
COc1ccc(CCN2CC(C(=O)N(C)CC(=O)Nc3cccc(F)c3)CC2=O)cc1OC (stereo unspecified)	/	-0.5%	-5.8%	-1.5%
CCc1onc(C)c1C(=O)Nc1ccc2c(c1)OCO2	-6.9	-1.7%	14.9%	-0.5%
CNS(=O)(=O)c1cccc(C(=O)OCC(=O)N(CCC#N)c2ccccc2)c1	8.6	-0.8%	-2.6%	-0.9%
CCCc1cc(=O)oc2cc(OCC(=O)Nc3ccc(CN4CCOCC4)cc3)c(Cl)cc12	/	-3.2%	-11.9%	-0.3%
O=C(Cc1ccccc1)NCc1nc2ccccc2[nH]1	/	/	5.7%	7.9%
O=C(NCc1ccccn1)C1CCN(S(=O)(=O)c2cc(Cl)ccc2Cl)CC1	2.0	8.5%	-4.2%	-0.8%
O=c1[nH]cnc2scc(-c3cccs3)c12	1.1	-4.7%	15.1%	?
CC1CC2(CCCC2)Nc2ccc(F)cc21 (stereo unspecified)	/	-0.9%	8.0%	2.9%
CN(C)S(=O)(=O)c1cccc(NC(=O)COC(=O)c2ccc([N+](=O)[O-])o2)c1	-2.5	7.0%	-28.1%	-1.0%
Cc1c(NC(=O)CCc2ccc(S(=O)(=O)N3CCOCC3)cc2)c(=O)n(-c2ccccc2)n1C	/	/	2.2%	4.7%
Cc1nnc(SCC2=C(C(=O)O)N3C(=O)C(NC(=O)Cn4nc(C(F)F)cc4C)C3SC2)s1 (stereo unspecified)	-0.1	-0.3%	14.6%	-4.4%
Cc1ccccc1-c1cc(C(=O)O)n(CC2CC(c3cccnc3)=NO2)n1 (stereo unspecified)	/	/	1.7%	-0.6%
COc1ccc2c(c1)OC(=O)CC2c1ccccc1OC (stereo unspecified)	-1.1	/	21.7%	-1.0%
CN(C)CCN(C(=O)c1ccc2ccccc2c1)c1nc2c(F)cccc2s1	/	-5.6%	-17.8%	0.0%
CCOc1ccc(C(=O)N/N=C(/C)C2C(=O)c3ccccc3C2=O)cc1	1.9	-6.2%	6.5%	4.1%
CCC1CCc2sc(C(=O)NCC(c3ccc(OC)cc3)N3CCOCC3)cc2C1 (stereo unspecified)	/	/	-4.1%	-2.1%
Cc1nc(NC2=NCN(C3CCCCC3C)CN2)nc2ccccc12 (stereo unspecified)	2.9	9.5%	/	/
COc1ccc(OC)c(C2NC(=S)NC3=C2N2CCC3CC2)c1 (stereo unspecified)	-3.8	1.2%	9.3%	3.2%
CC(=O)Nc1ccc(NC(=O)[C@@H](NC(=O)N2C[C@H]3C[C@@H](C2)c2cccc(=O)n2C3)C(C)C)cc1	/	-0.3%	12.6%	3.0%
O=C(CSc1nnc(-c2ccccc2)n1Cc1ccco1)NCc1ccc2c(c1)OCO2	4.8	-0.7%	-2.4%	-0.9%
COc1ccc(OC)c(NC(=O)CSc2nc(=O)n(CCN3CCOCC3)c3c2CCC3)c1	/	/	11.4%	?
CSCCC1NC(=O)N(C(C)C(=O)Nc2cc(Cl)cc(Cl)c2)C1=O (stereo unspecified)	-3.8	-5.3%	17.6%	0.5%
CCCc1cc(=O)oc2c(C)c(O[C@@H]3O[C@H](CO)[C@@H](O)[C@H](O)[C@H]3O)ccc12	/	8.8%	-0.3%	-3.5%
